Source: PubChem BioAssay
H5N1 CPE: antiviral screen in MDCK cells, H5N1 avian flu; inhibition, % at 50 µM; AID 740; hit rate 0.07% among 96,000; cytopathic effect, luminescence, 72 h; stronger effect = higher value; no value below 0 was filed and about half of the inactive calls have no number; reference of the scale not given here; in the data active = inhibition above about 25%
Active calls of the source: *.

Results for O=C(CN1CCOCCOCCN(CC(=O)Nc2ccccc2)CCOCC1)Nc1ccccc1 ?
H5N1 CPE: 1.2

Results for CCC(Sc1nc(C)cc(=O)[nH]1)C(=O)Nc1ccc(Cl)cn1 (stereo not drawn) ?
H5N1 CPE: 2.3

Results for O=C(NCCc1ccccc1)C1CCN(c2nc3ccccc3o2)CC1 ?
H5N1 CPE: inactive

What do the screens show for `O=C(CSc1nnc2ccccn12)NC(=O)NC1CCCCC1`?
H5N1 CPE: inactive

How did O=C(Nc1cccc2ccccc12)N1CC=CCC1 do in these assays?
H5N1 CPE: inactive

What do the screens show for `CCCn1c(N)nc2ccccc21`?
H5N1 CPE: 0.3

What do the screens show for `CCOC(=O)N1CCN(C(=O)CN(Cc2ccc(Cl)cc2)S(=O)(=O)c2ccccc2)CC1`?
H5N1 CPE: 0.8

How did Cc1nc2c3c4c(sc3n3c(SCC(=O)NCc5ccco5)nnc3n2n1)COC(C)(C)C4 do in these assays?
H5N1 CPE: 2.1

How did CCC(=O)Nc1ccc(C(=O)Nc2cc(C)on2)cc1 do in these assays?
H5N1 CPE: inactive

Results for O=C(COc1ccccc1)Nc1nc2ccccc2[nH]1 ?
H5N1 CPE: 0.1

Results for Cc1nc(NC(=O)c2ccccc2)sc1-c1csc(N)n1 ?
H5N1 CPE: inactive

How did COC(=O)C(C)NS(=O)(=O)c1ccc(NC(C)=O)cc1 (stereo not drawn) do in these assays?
H5N1 CPE: inactive

Results for COC(=NC1CCCCC1)C(O)c1c[nH]c2ccccc12 (stereo not drawn) ?
H5N1 CPE: 2.0

How did Cc1ccccc1NC(=S)NNc1ncc(C(F)(F)F)cc1Cl do in these assays?
H5N1 CPE: 0.3

What do the screens show for `Cc1c(CCC(C)C)c(-n2ccnc2C)n2c(nc3ccccc32)c1C#N`?
H5N1 CPE: inactive

What do the screens show for `COC(=O)c1coc(-c2ccc(C)cc2)c1C(=O)OC`?
H5N1 CPE: 3.5

How did CC(C)(C)C1CCC(=O)C(C2(O)C(=O)Nc3ccccc32)C1 (stereo not drawn) do in these assays?
H5N1 CPE: 1.6

Results for c1ccc(C(OCCN2CCNCC2)c2ccccc2)cc1 ?
H5N1 CPE: inactive

What do the screens show for `CCOC(=O)C1=C(C)NC(=O)NC1c1ccc(OC(=O)c2ccco2)c(OC)c1` (stereo not drawn)?
H5N1 CPE: 0.1

How did CC(=O)c1cccc(NC(=O)c2ccc(NS(=O)(=O)c3c(C)noc3C)cc2)c1 do in these assays?
H5N1 CPE: inactive

What do the screens show for `O=C(NNS(=O)(=O)c1ccccc1)C1CCN(S(=O)(=O)c2ccccc2)CC1`?
H5N1 CPE: inactive

Results for CCOC(=O)C(C)n1cnc2c(nnn2Cc2ccc(Cl)cc2)c1=O (stereo not drawn) ?
H5N1 CPE: inactive

What do the screens show for `CCOc1ccccc1NC(=O)C1C2C=CC(C2)C1C(=O)O` (stereo not drawn)?
H5N1 CPE: 0.8

Results for COc1ccc(CCNS(=O)(=O)c2ccc3c(c2)OCCO3)cc1 ?
H5N1 CPE: inactive

Results for N#C/C(=C\c1cn(CCOc2ccccc2)c2ccccc12)C(=O)NCC1CCCO1 (stereo not drawn) ?
H5N1 CPE: 0.8

How did COc1ccccc1-n1c(C)nc2cc(C(=O)O)ccc21 do in these assays?
H5N1 CPE: 2.0

What do the screens show for `OCCN=C(c1ccccc1)C12CN3CN(CN(C3)C1)C2`?
H5N1 CPE: inactive

What do the screens show for `COc1ccc(N(CC(=O)N2CCc3ccccc32)S(=O)(=O)c2c(C)nn(C)c2C)cc1`?
H5N1 CPE: 0.6

What do the screens show for `Cc1ccc(S(=O)(=O)Nc2nc(C)cc(NCCN)n2)cc1`?
H5N1 CPE: inactive

What do the screens show for `O=C(NCCSCc1ccco1)Nc1ccccc1`?
H5N1 CPE: 1.2

Results for COc1ccccc1C(=O)NCC(=O)n1nc(C)cc1C ?
H5N1 CPE: inactive

How did CCOc1cc(/C=N/n2cnnc2)ccc1O do in these assays?
H5N1 CPE: 1.8

How did CCOC(=O)C1(c2ccccc2)CCN(Cc2cccc(C(=O)O)c2)CC1 do in these assays?
H5N1 CPE: inactive

Results for Cc1cc(C)n(C(=O)C23CC4CC(CC(C4)C2)C3)n1 ?
H5N1 CPE: inactive

Results for CCOc1ccc(C2CC(c3cccc(C)c3)n3nc(N)nc3N2)cc1 (stereo not drawn) ?
H5N1 CPE: 1.1

How did CC(=O)N(C(C)=O)c1c(N2CCOCC2)c2ccccc2oc1=O do in these assays?
H5N1 CPE: inactive

Results for COc1ccc(OC)c(C2CC(=O)N3CN(c4ccccc4)CSC3=C2C#N)c1 (stereo not drawn) ?
H5N1 CPE: 0.4

What do the screens show for `COc1ccc(NC(=O)c2ccc(CN3CCN(c4ccccc4)CC3)cc2)cc1OC`?
H5N1 CPE: 2.1

What do the screens show for `CCN(CC)CCCNC(=O)c1cn(CCOC)c(=O)c2c1c1ccccc1n2C`?
H5N1 CPE: 0.6

Results for CCn1c(SCC(=O)Nc2nc(-c3ccc(C)cc3)cs2)nnc1-c1ccccc1 ?
H5N1 CPE: inactive

Results for COC(=O)C1=C(C)N(C)C(C)=C(C(=O)OC)C1c1ccsc1 ?
H5N1 CPE: inactive

Results for Cc1ccc(NCN2C(=O)C3C4CCC(C4)C3C2=O)cc1 (stereo not drawn) ?
H5N1 CPE: inactive

What do the screens show for `CCCCCCn1c(O)c(C(C)=NC)c(=O)[nH]c1=O`?
H5N1 CPE: 0.8

Results for CC(=O)OC1CC2(C)C(=O)CCC2C2CCc3cc(O)ccc3C12 (stereo not drawn) ?
H5N1 CPE: inactive

How did CCCCOc1ccc(C(=O)NCc2ccccn2)cc1 do in these assays?
H5N1 CPE: inactive

How did C/C(N)=C(/C#N)C(=O)CSc1nnc(-c2ccc(OC(F)F)cc2)o1 do in these assays?
H5N1 CPE: 1.6

Results for CCNc1ccc(C(=O)OCC)cc1NC(=O)c1cc(S(=O)(=O)N2CCOCC2)ccc1C ?
H5N1 CPE: 1.3

Results for CCN(CCCNC(=O)CN(C)S(=O)(=O)c1cccc2nsnc12)c1cccc(C)c1 ?
H5N1 CPE: inactive

The last 6 records of the section above lead into the next.
What do the screens show for `CCCCCCn1c(O)c(C(C)=NC)c(=O)[nH]c1=O`?
H5N1 CPE: 0.8

Results for CC(=O)OC1CC2(C)C(=O)CCC2C2CCc3cc(O)ccc3C12 (stereo not drawn) ?
H5N1 CPE: inactive

How did CCCCOc1ccc(C(=O)NCc2ccccn2)cc1 do in these assays?
H5N1 CPE: inactive

How did C/C(N)=C(/C#N)C(=O)CSc1nnc(-c2ccc(OC(F)F)cc2)o1 do in these assays?
H5N1 CPE: 1.6

Results for CCNc1ccc(C(=O)OCC)cc1NC(=O)c1cc(S(=O)(=O)N2CCOCC2)ccc1C ?
H5N1 CPE: 1.3

Results for CCN(CCCNC(=O)CN(C)S(=O)(=O)c1cccc2nsnc12)c1cccc(C)c1 ?
H5N1 CPE: inactive

How did CCN(C(=O)c1cn(CC)c(=O)c2cc(OC)c(OC)cc12)c1ccccc1C do in these assays?
H5N1 CPE: inactive

What do the screens show for `O=C(Nc1nccs1)c1cccc(NC(=O)C2CC2)c1`?
H5N1 CPE: 0.3

What do the screens show for `Cc1cc(NS(=O)(=O)c2ccc(NC(=O)C(C(C)C)N3C(=O)c4ccccc4C3=O)cc2)nc(C)n1` (stereo not drawn)?
H5N1 CPE: inactive

What do the screens show for `O=C(c1ccc2nc(-c3ccco3)c(-c3ccco3)nc2c1)N1CCN(c2ccccc2)CC1`?
H5N1 CPE: inactive

Results for Cc1cc(C)n2c(SCC(=O)N3CCN(S(=O)(=O)c4ccc(Cl)cc4)CC3)nnc2n1 ?
H5N1 CPE: 2.3

Results for COc1ccc(S(=O)(=O)N2CCCCCC2)cc1C(=O)OCC(=O)NCC(C)C ?
H5N1 CPE: 0.1

How did CCNC(=S)N1CCN(C(c2ccccc2)c2ccccc2)CC1 do in these assays?
H5N1 CPE: inactive

How did C=CCc1ccccc1OCC(O)CN1CCN(Cc2ccc3c(c2)OCO3)CC1 (stereo not drawn) do in these assays?
H5N1 CPE: inactive

How did COCC(=O)Nc1nnc(SCC(=O)NCc2cccs2)s1 do in these assays?
H5N1 CPE: inactive

What do the screens show for `Cc1ccccc1OCc1nc(-c2ccccc2)no1`?
H5N1 CPE: 0.3

Results for O=C(Cn1nc(Cc2cccnc2)c2ccccc2c1=O)Nc1ccc2c(c1)OCO2 ?
H5N1 CPE: 2.4

What do the screens show for `O=c1c2ccccc2nc(SCc2ccccc2Cl)n1Cc1ccccc1`?
H5N1 CPE: inactive

Results for O=C(NCCc1ccc(Cl)cc1)C1CCN(C(=O)c2sccc2-n2cccc2)CC1 ?
H5N1 CPE: 1.2

What do the screens show for `Cn1c(=O)oc2cc(S(=O)(=O)N3CCCC(C(=O)NCC4COc5ccccc5O4)C3)ccc21` (stereo not drawn)?
H5N1 CPE: 0.5

Results for CC(=O)Nc1nc(-c2cccs2)cs1 ?
H5N1 CPE: inactive

Results for CC1=C2C(=O)OC(c3ccoc3)C2(C)CCC1 (stereo not drawn) ?
H5N1 CPE: inactive

Results for O=C(NCCCn1ccnc1)c1cn(-c2ccccc2)nc1-c1ccc(F)cc1 ?
H5N1 CPE: inactive

How did O=C(CCN1C(=O)c2ccccc2C1=O)N1CCN(Cc2ccc(Cl)cc2Cl)CC1 do in these assays?
H5N1 CPE: 0.6

How did O=C(CN1C(=O)COc2ccccc21)NCCN1CCc2ccccc2C1 do in these assays?
H5N1 CPE: 0.7

What do the screens show for `CCCN(CCC)CCCNS(=O)(=O)c1cc(Br)cc2c1N(C(C)=O)CC2`?
H5N1 CPE: 1.6

How did CC[C@H](C)[C@H](NS(=O)(=O)c1ccc(C)cc1)C(=O)N1CCC(C(=O)N[C@@H](C)C(=O)O)CC1 do in these assays?
H5N1 CPE: 0.4

Results for COc1ccc(NC(=O)CSc2nc(-c3ccncc3)nn2CC(=O)N2CCCC2)cc1 ?
H5N1 CPE: inactive

What do the screens show for `CCCCOc1ccc(-c2nnc(-c3ccco3)o2)cc1`?
H5N1 CPE: inactive

How did CCN(CC)S(=O)(=O)c1cccc(-c2nc3n(n2)Cc2ccccc2-3)c1 do in these assays?
H5N1 CPE: 0.2

Results for COc1ccc(Br)cc1CN1CCN(C(=O)c2cccc(OC)c2OC)CC1 ?
H5N1 CPE: inactive

Results for Cc1ccccc1NC(=O)Cc1nc(CSc2nnc(C3CCCCC3)n2N)cs1 ?
H5N1 CPE: inactive

How did O=S(=O)(Cc1ccccc1)N1CCn2c(nc3ccccc32)C1 do in these assays?
H5N1 CPE: 1.8

What do the screens show for `CCC(=O)N/C=C/n1cnc2cc(C(F)(F)F)ccc21`?
H5N1 CPE: 0.8

What do the screens show for `COc1cc(C2N3CC4(C)CN2CC(C)(C3)C4)ccc1O` (stereo not drawn)?
H5N1 CPE: inactive

How did CN(C)S(=O)(=O)N1CCN(C(=O)N2CCCCCC2)CC1 do in these assays?
H5N1 CPE: inactive

How did CCC1(C)Cc2c(sc3c2c2ncnn2c2nnc(SCC(=O)NCc4ccco4)n32)CO1 (stereo not drawn) do in these assays?
H5N1 CPE: 15.2

What do the screens show for `O=C(Nc1ncc2c(n1)-c1ccccc1CC2)c1ccc(F)cc1`?
H5N1 CPE: 3.8

What do the screens show for `CCOC(=O)c1nnn(CC(=O)Nc2cc(Cl)ccc2C)c1C(=O)OCC`?
H5N1 CPE: 1.6

How did COCCCn1c(-c2ccccc2Cl)n[nH]c1=S do in these assays?
H5N1 CPE: 0.2

What do the screens show for `O=C(CCN1C(=O)c2ccccc2C1=O)N1CCN(c2ccccn2)CC1`?
H5N1 CPE: inactive

Results for O=C(OCCN(C1=NS(=O)(=O)c2ccccc21)c1ccc(Cl)cc1)c1ccco1 ?
H5N1 CPE: 7.0

Results for OC(CSc1ccccc1Cl)CN1CCN(c2ccc(F)cc2)CC1 (stereo not drawn) ?
H5N1 CPE: inactive

What do the screens show for `CCOC(=O)N1CCN(C(=O)NC23CC4CC(CC(C4)C2)C3)CC1`?
H5N1 CPE: 0.2

Results for CC(C)(C)n1ncc2c(=O)n(CC(=O)OCc3ccccc3)cnc21 ?
H5N1 CPE: 1.2

How did COc1cc(NC(=O)CSc2nnnn2Cc2ccc3c(c2)OCO3)cc(OC)c1 do in these assays?
H5N1 CPE: inactive

Results for CCC(=O)Nc1ccc(NC(=O)c2ccco2)c(OC)c1 ?
H5N1 CPE: inactive

How did N#Cc1ccc(-c2ccco2)nc1SCc1ccccc1 do in these assays?
H5N1 CPE: inactive

What do the screens show for `O=C(c1cnc2n(c1=O)CCS2)N1CCN(c2ccc(Cl)c(Cl)c2)CC1`?
H5N1 CPE: 4.9

What do the screens show for `COc1ccc(OC)c(C2CC(=O)N3CN(c4ccc(C)c(Cl)c4)CSC3=C2C#N)c1` (stereo not drawn)?
H5N1 CPE: 1.5

How did Cc1ccc(S(=O)(=O)N2CCCC(C(=O)N3CCCc4ccccc43)C2)cc1 (stereo not drawn) do in these assays?
H5N1 CPE: 1.2

Results for O=C(c1ccco1)N1CCCC(c2nc(-c3ccc(S(=O)(=O)NCc4ccccc4)cc3)no2)C1 (stereo not drawn) ?
H5N1 CPE: 5.1

How did N#Cc1cc(-c2ccccc2)cn(Cc2c(Cl)cccc2Cl)c1=O do in these assays?
H5N1 CPE: 0.5

What do the screens show for `CCCCCn1c(CN2CCN(Cc3ccccc3)CC2)nc2c1c(=O)[nH]c(=O)n2C`?
H5N1 CPE: inactive

How did Cc1noc(COc2ccccc2OCC(N)=O)c1Cl do in these assays?
H5N1 CPE: inactive

Results for CC1(c2ccccc2)NC(=O)N(CC(=O)N2CCOCC2)C1=O (stereo not drawn) ?
H5N1 CPE: inactive

Results for CCc1nc2cc(CC(=O)O)ccc2o1 ?
H5N1 CPE: inactive

Results for CC12CN(C(=O)c3ccco3)CC(c3ccccc3)(CN(C(=O)c3ccco3)C1)C2=O ?
H5N1 CPE: 0.7

Results for CCCCCc1nc(-c2nonc2N)no1 ?
H5N1 CPE: 0.9

What do the screens show for `Cc1ccn(-c2ccc([N+](=O)[O-])cc2)n1`?
H5N1 CPE: inactive

Three entries drawn at random from the list so far:
What do the screens show for `Cc1ccn(-c2ccc([N+](=O)[O-])cc2)n1`?
H5N1 CPE: inactive

How did Cc1noc(COc2ccccc2OCC(N)=O)c1Cl do in these assays?
H5N1 CPE: inactive

Results for CC12CN(C(=O)c3ccco3)CC(c3ccccc3)(CN(C(=O)c3ccco3)C1)C2=O ?
H5N1 CPE: 0.7

These rows are one share of the data; the hit share may differ from the screen's.
